Screening results from PubChem BioAssay.
Sa RN4220 lethal: kills Staphylococcus aureus RN4220 | 0.33% of 330,000 active | AID 1259311 | S. aureus RN4220 growth, OD600, 16 h | inhibition, % (no concentration beside the values);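 active = z-score of -3 or lower and OD600 up to 0.18 on both plates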;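 also: plate controls were untreated cells for no effect and reference antibiotic for full effect; stock transfer was 100 nL into about 80 µL; one replicate is shown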
BJeLR lethal: kills HRASV12-expressing BJeLR cells; BJeLR (HRASV12) viability, CellTiter-Glo ATP luminescence, 48 h; reference of the scale not given here; inhibition, % (no concentration beside the values); 0.17% of 300,000 active; AID 1554;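 active = replicate mean above 50%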;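 also: 50 nL library stock added to about 25 µL; numbers are from one replicate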
Autofluor counter: counter-screen for toxin protease inhibitors: compound fluorescence. compound autofluorescence counterscreen, microsphere flow cytometry; hits give high values. fluorescence intensity (no concentration beside the values). 3.1% of 360,000 active. AID 624483;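 active = at least 3 SD above the mean of all compounds, about 16000 in these data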;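 also: 100 nL of 1 mM stock went into each well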
Mtb hypoxia rep: Mtb hypoxia fluorescent reporter inhibition; M. tuberculosis hypoxia-regulated fluorescent reporter, fluorescence; fluorescence inhibition, % (concentration not given with the values); 0.1% of 300,000 active;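 active = 35 to 45% if threefold the growth effect, above 45% if 1.5-fold the growth effect; inactive = the rest, general growth blockers included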;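 also: wells of about 50 µL received 100 nL stock; 0% = vehicle wells and 100% = reference inhibitor wells; whole bacteria with a GFP reporter of the hypoxia response; strong numbers were not always called active; many hits fall short of the cut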
Sa ugtP lethal: kills S. aureus RN4220 lacking UgtP. S. aureus RN4220 ugtP deletion, OD600 growth, 16 h; some inactives read as strong as hits. growth inhibition, % (test concentration not listed). 0.54% of 330,000 active;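 active = z-score under -3 and OD600 up to 0.15 on both plates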;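 also: plate controls were untreated wells for no effect and antibiotic for full effect; wells of about 80 µL received 100 nL stock; the first replicate is given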
PrP 5UTR inh: suppresses PrP 5' UTR mRNA reporter expression. 0.35% of 340,000 active. inhibition, % (test concentration not listed). cell-based PrP 5' UTR mRNA reporter, plate reader;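 active = every replicate at 50% or more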;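 also: 0 = median of the neutral control wells; tested in H4 reporter cells; numbers are from one replicate; inactives centre near -14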
Mtb hypoxia rep growth: recorded beside Mtb hypoxia rep, whose call it bears; growth inhibition, %; measured here: M. tuberculosis growth (absorbance);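 0% = vehicle and 100% = reference antibiotic; read after six days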
* hit, by the source's call; / = not tested or not shown.

SMILES	Sa RN4220 lethal	BJeLR lethal	Autofluor counter	Mtb hypoxia rep	Mtb hypoxia rep growth	Sa ugtP lethal	PrP 5UTR inh
CCn1c(=O)n(CC)c2cc(S(=O)(=O)N3CCCCC3)c(C)cc21	1.2	/	10905	4	8	-5	3
COc1ccccc1Nc1nn2c(=O)c3ccc(C(=O)N4CCC(C)CC4)cc3nc2s1	/	-2	5334	/	/	/	-25
CC(C)C(CCN1C(=O)CCC1=O)C1CCOC(C)(C)C1 (stereo unspecified)	-1.6	-2	3285	1	5	-4	-16
CC(C)(C)C(=O)Nc1ccc(C(=O)NN=Cc2ccccc2OC(=O)c2ccccc2)cc1	16	/	/	22	1	3	/
CC(=O)NN1C(=O)c2ccccc2NC1c1ccccc1O (stereo unspecified)	1.8	-2	3744	0	-1	17	-6
CCCC(=O)C1CCN(Cc2ccccc2)CC1	1.4	-4	6873	-2	-7	-1	-14
O=C(CCNC(=O)c1ccccc1Cl)Nc1cc(S(=O)(=O)N2CCOCC2)ccc1N1CCOCC1	4.9	1	3534	12	4	7	15
Cc1ccc(Nc2ncnc3c2nnn3Cc2ccccc2)cc1	-5.6	0	5712	14	18	-14	/
CCOC1CCc2c(C)nc(N)nc2S1 (stereo unspecified)	4.4	0	4829	11	11	8	-27
CCc1c(C)nc2ncnn2c1Nc1ccc(C(C)=O)cc1	10	6	3244	/	/	13	-31
O=C(Nc1ccc(C=Cc2nc3ccccc3o2)cc1)c1cccc(C(F)(F)F)c1	-9.7	/	/	5	5	-5	/
NC(=O)c1ccccc1NS(=O)(=O)Cc1ccc(Cl)cc1	6.9	4	9828	4	8	2	5
CCC1(C)Cc2c(sc3nc(SC)nc(NCCN(C)C)c23)CO1 (stereo unspecified)	2.0	-3	9824	19	7	8	-12
COc1ccccc1CN1CCN(S(=O)(=O)c2ccccc2)CC1	6.4	7	8959	9	7	5	-20
CCN(CC)S(=O)(=O)c1ccc(N2C(=O)CC2(/C=C/c2ccccc2)C(=O)NC2CCCC2)cc1 (stereo unspecified)	2.1	10	6855	2	-2	22	-25
O=C(NC1CC1)C1=C[C@@H](c2ccccc2)C[C@@H](OCc2ccc(CO)cc2)O1	/	8	3893	/	/	/	-19
Nc1nonc1OCCc1ccccc1	14	-17	3015	3	2	3	-26
Cc1nc2nc(-c3ccc(Cl)cc3)[nH]n2c(=O)c1Cc1ccccc1	-6.0	5	2407	9	10	22	-30
c1ccc(CNCCC(Cc2ccccc2)c2ccco2)cc1 (stereo unspecified)	0.0	-6	3668	1	16	-3	-22
O=C(CSc1ccccc1)Nc1ccccc1C(=O)N1CCCC1	6.5	-3	2030	12	2	10	-24
CCn1c(SCC(=O)NCc2ccco2)nc2c1c(=O)n(C)c(=O)n2C	4.0	7	11516	13	5	4	-26
CCOc1cc(C2C(C(=O)c3ccc(C)o3)=C(O)C(=O)N2CCc2ccccc2)ccc1O (stereo unspecified)	18	8	4650	3	7	48	-20
Cn1c(=O)c(C(=O)COc2ccc(F)cc2Cl)c(N)n(Cc2ccccc2)c1=O	-4.4	-1	4528	6	4	-1	-28
NC(=O)c1nsc(C(=O)N(Cc2cccnc2)C(C(=O)NC2CCCCC2)c2ccc(F)cc2)c1N (stereo unspecified)	3.5	5	3674	0	2	10	-19
O=C(Cn1ccc2ccccc2c1=O)NCCC(=O)N1CCN(C(=O)c2ccco2)CC1	-0.1	/	15665	5	3	4	-6
Cc1ccc(N(C(=O)CNC(=O)c2ccco2)C(C(=O)NC2CCCC2)c2ccncc2)cc1 (stereo unspecified)	0.8	4	3758	-5	3	13	-12
Cc1cccc(N2CCN(C(=O)CCNS(=O)(=O)c3ccc4c(c3)oc(=O)n4C)CC2C)c1 (stereo unspecified)	4.6	11	5224	6	4	6	-35
CC1(C)CC(NC(=O)c2ccc(Cl)c(S(=O)(=O)N(Cc3ccccc3)c3ccccc3)c2)CC(C)(C)N1	-7.7	5	6859	9	8	-7	-13
CC(C)C(=O)Nc1cc(S(=O)(=O)Nc2ccc(Cl)cc2)ccc1Cl	-2.8	-3	2087	7	1	1	-6
CN(C(=O)COC(=O)c1ccccc1SCC(=O)N1CCCC1)c1ccccc1	1.4	-2	6012	1	-1	3	-10
Fc1ccc(-c2ccnn2-c2ccccc2)cc1	5.4	-7	3986	3	-3	11	-16
C=CCNC(=O)CN1CCC(n2nnc3cc(C(F)(F)F)ccc32)CC1	7.1	3	5287	14	0	10	-53
O=C(CCc1nc2ccccc2[nH]1)Nc1ccc2c(c1)OCCO2	-1.8	-11	5799	/	/	1	14
O=C(Nc1cc(S(=O)(=O)N2CCOCC2)ccc1O)c1ccc2c(c1)S(=O)(=O)c1ccccc1C2=O	2.5	-11	2014	4	-1	2	-13
Cc1cccc(C)c1-n1c(C)cc(C=NNC(=O)c2ccncc2)c1C	1.2	/	/	/	/	-1	/
CC(=O)OCCCCCCCCCCC[N+]1(C)CCCCC1	2.5	/	4480	8	3	16	-24
O=C(Nc1ccc(SC(F)F)cc1)c1ccc2nccnc2c1	6.4	19	12546	-5	1	-9	-101
CCn1cc(CNC(=O)c2cc([N+](=O)[O-])c(C)c([N+](=O)[O-])c2)cn1	2.2	-3	2148	/	/	8	6
O=C(CN1C(=O)N/C(=C\c2ccccc2OCc2ccc(C(=O)O)cc2)C1=O)Nc1ccc(F)cc1	7.3	2	3997	-11	-12	-6	-7
Cc1cccc(N(C(=O)c2snc(C(N)=O)c2N)C(C(=O)NCc2ccccc2)c2ccncc2)c1 (stereo unspecified)	2.6	-2	3974	0	-4	9	-28

17 entries out of the list, ordered by formula weight, largest number first.
SMILES	Sa RN4220 lethal	BJeLR lethal	Autofluor counter	Mtb hypoxia rep	Mtb hypoxia rep growth	Sa ugtP lethal	PrP 5UTR inh
CC1(C)CC(NC(=O)c2ccc(Cl)c(S(=O)(=O)N(Cc3ccccc3)c3ccccc3)c2)CC(C)(C)N1	-7.7	5	6859	9	8	-7	-13
O=C(CCNC(=O)c1ccccc1Cl)Nc1cc(S(=O)(=O)N2CCOCC2)ccc1N1CCOCC1	4.9	1	3534	12	4	7	15
O=C(Nc1cc(S(=O)(=O)N2CCOCC2)ccc1O)c1ccc2c(c1)S(=O)(=O)c1ccccc1C2=O	2.5	-11	2014	4	-1	2	-13
CCN(CC)S(=O)(=O)c1ccc(N2C(=O)CC2(/C=C/c2ccccc2)C(=O)NC2CCCC2)cc1 (stereo unspecified)	2.1	10	6855	2	-2	22	-25
O=C(CN1C(=O)N/C(=C\c2ccccc2OCc2ccc(C(=O)O)cc2)C1=O)Nc1ccc(F)cc1	7.3	2	3997	-11	-12	-6	-7
COc1ccccc1Nc1nn2c(=O)c3ccc(C(=O)N4CCC(C)CC4)cc3nc2s1	/	-2	5334	/	/	/	-25
CC(C)(C)C(=O)Nc1ccc(C(=O)NN=Cc2ccccc2OC(=O)c2ccccc2)cc1	16	/	/	22	1	3	/
O=C(Cn1ccc2ccccc2c1=O)NCCC(=O)N1CCN(C(=O)c2ccco2)CC1	-0.1	/	15665	5	3	4	-6
CC(C)C(=O)Nc1cc(S(=O)(=O)Nc2ccc(Cl)cc2)ccc1Cl	-2.8	-3	2087	7	1	1	-6
O=C(NC1CC1)C1=C[C@@H](c2ccccc2)C[C@@H](OCc2ccc(CO)cc2)O1	/	8	3893	/	/	/	-19
CCn1c(SCC(=O)NCc2ccco2)nc2c1c(=O)n(C)c(=O)n2C	4.0	7	11516	13	5	4	-26
C=CCNC(=O)CN1CCC(n2nnc3cc(C(F)(F)F)ccc32)CC1	7.1	3	5287	14	0	10	-53
COc1ccccc1CN1CCN(S(=O)(=O)c2ccccc2)CC1	6.4	7	8959	9	7	5	-20
O=C(Nc1ccc(SC(F)F)cc1)c1ccc2nccnc2c1	6.4	19	12546	-5	1	-9	-101
O=C(CCc1nc2ccccc2[nH]1)Nc1ccc2c(c1)OCCO2	-1.8	-11	5799	/	/	1	14
CC(=O)OCCCCCCCCCCC[N+]1(C)CCCCC1	2.5	/	4480	8	3	16	-24
c1ccc(CNCCC(Cc2ccccc2)c2ccco2)cc1 (stereo unspecified)	0.0	-6	3668	1	16	-3	-22

Additional records follow:
SMILES	Sa RN4220 lethal	BJeLR lethal	Autofluor counter	Mtb hypoxia rep	Mtb hypoxia rep growth	Sa ugtP lethal	PrP 5UTR inh
CCOc1ccc(CCNC(=O)CN(C)S(=O)(=O)c2cccc3nsnc23)cc1OCC	-1.1	-2	4495	-3	8	-10	7
COc1ccc2c(CC(=O)N3CCN(S(=O)(=O)c4ccc(F)cc4)CC3)coc2c1	9.0	/	8664	1	7	5	-26
Cc1ccc(CNC(=O)C2CCN(S(=O)(=O)c3ccc4nc5c(c(C(=O)O)c4c3)CC(C)CC5)CC2)cc1 (stereo unspecified)	4.0	13	5686	5	1	2	-25
NS(=O)(=O)c1cccc(NC(=S)NCc2ccccc2)c1	1.3	-4	4685	-3	8	4	6
COc1ccc(NC(=O)CSc2ccc(-c3ccco3)nn2)cc1OC	2.8	7	5666	1	3	-19	-12
Cc1nc2c(cc1N)nc(C)n2Cc1ccccc1	-0.8	-2	3348	-1	-26	5	-12
CCC1CCCCN1S(=O)(=O)c1ccc2c(c1)CCN2C(=O)C1CCC1 (stereo unspecified)	6.7	-10	4072	14	13	5	4
O=C(O)c1cccc(S(=O)(=O)N2CCN(S(=O)(=O)c3ccc4ccccc4c3)CC2)c1	2.6	/	5271	6	-2	2	-6
Cc1cccc(OCC(O)Cn2c(=N)n(Cc3ccccc3)c3ccccc32)c1 (stereo unspecified)	-2.8	9	3848	4	3	-8	-14
CC(CCc1ccccc1)NC(=O)CNC(=O)c1ccccc1Br (stereo unspecified)	2.8	2	5663	13	15	6	-7
COc1cccc(NC(=O)c2ccc(NC(C)=O)cc2)c1	5.0	1	3520	5	13	3	-32
O=C(c1ccco1)N1CCCC(c2nc3c(nnn3Cc3ccc(F)cc3)c(=O)[nH]2)C1 (stereo unspecified)	1.0	-7	3969	6	3	2	-15
CCOc1ccc(CN(C(=O)/C=C/c2ccco2)C2CCS(=O)(=O)C2)cc1 (stereo unspecified)	3.9	2	5585	2	-6	6	-18
COc1ccc(C2OC(=O)CC2C(=O)NCc2ccc(F)cc2)cc1OC (stereo unspecified)	-1.5	0	4244	15	-2	-63	-57
OCc1c(OCc2cccc(F)c2)ccc2ccccc12	9.1	-8	3985	9	-3	3	-38
N/C(=N\OC(=O)COc1ccccc1Cl)c1ccccn1	2.9	/	2527	21	0	5	-84
COc1cc(C(=O)OCCn2c(=O)c3c(ncn3CCN(C)C)n(C)c2=O)cc(OC)c1OC	4.8	-7	2705	7	1	9	-4
CCCNC(=O)C(Cc1ccccc1)NC(=O)c1ccc(C(C)(C)C)cc1 (stereo unspecified)	2.0	/	3000	11	7	1	-26
Cc1ccc(NC(=O)C2c3ccccc3Oc3ccccc32)c(C)c1	1.0	-27	1897	-5	1	2	-6
Cc1ccc(-n2[nH]c(C)c(C=Nc3cc(C)ccn3)c2=O)cc1	1.2	10	4167	/	/	3	-14
O=C(Nc1nc2ccccc2s1)c1cccc(N2C(=O)CCC2=O)c1	6.0	9	5812	5	7	-3	-48
Cn1c(O)c(N=NC(=O)C2COc3ccccc3O2)c2ccccc21 (stereo unspecified)	2.0	-7	4164	1	-10	11	-11
CN(C)C(=O)N1CCN(C(=O)c2ccco2)CC1	-1.5	-7	5997	/	/	9	-6
